# Screening data (PubChem BioAssay)
# RGS16-Gao HTS: regulators of human RGS16-Galphao interaction | bead-based flow cytometry RGS16-Galphao binding, fluorescence; actives lie on both sides | binding response (% of control), % at 10 µM | 0.38% of 220,000 active;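 active means below 25% or above 175%, edge rows of some plates excepted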;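 further: Galphao activated by GDP with aluminum fluoride before binding; 100% = wells without compound and 0% = beads without RGS; some results beyond the cut were filed as inactive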
# Target sequence (O15492 whole entry, looked up): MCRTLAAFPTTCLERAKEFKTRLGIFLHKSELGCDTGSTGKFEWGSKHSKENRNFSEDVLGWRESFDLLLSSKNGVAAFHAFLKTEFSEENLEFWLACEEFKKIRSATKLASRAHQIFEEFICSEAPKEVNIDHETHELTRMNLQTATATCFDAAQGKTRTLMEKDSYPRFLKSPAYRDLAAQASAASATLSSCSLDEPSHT
# Target sequence (P09471 whole entry, looked up): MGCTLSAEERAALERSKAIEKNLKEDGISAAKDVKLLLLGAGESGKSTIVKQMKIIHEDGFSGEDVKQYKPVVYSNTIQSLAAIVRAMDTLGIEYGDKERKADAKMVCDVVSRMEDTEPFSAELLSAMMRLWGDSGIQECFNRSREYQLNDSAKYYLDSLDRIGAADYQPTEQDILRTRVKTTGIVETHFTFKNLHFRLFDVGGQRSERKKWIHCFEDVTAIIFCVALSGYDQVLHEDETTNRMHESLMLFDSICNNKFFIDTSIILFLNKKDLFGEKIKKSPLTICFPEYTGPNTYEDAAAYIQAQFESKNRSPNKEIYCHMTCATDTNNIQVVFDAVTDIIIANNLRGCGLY
# INS promoter inh: TRM-6 insulin promoter activity inhibition | TRM-6 cells (human fetal islet line), insulin promoter-eGFP reporter, imaging; reporter expression induced with tamoxifen | inhibition, % at 2 µM | 0.9% of 130,000 active;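 active means inhibition above the mean plus 3 SD, with well images judged a real hit on visual review, cut at about 60% in these data, passing the limit was not always enough; inconclusive means inhibition over the cutoff but images rejected on review; inactive means inhibition not above the cutoff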
# HSV replic up: HSV replication enhancement; maximum fold increase; HSV replication augmentation in cells, fold increase; 0.005% of 220,000 active;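 active means peak rise of 1.5-fold or more in the series; inconclusive means self-fluorescent or not available for retest; tested in PC3 cells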;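 further: first round at 10 µM; read as green reporter fluorescence; hits show the peak of a series up to 25 µM; 1 = signal of infected wells without compound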
# GALR2 ag: activates the human galanin receptor 2 | O43603 | GALR2-expressing cells, agonist activation read-out | 0.48% of 140,000 active | activation, %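 (tested at 5 µM)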;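 active means above mean plus 3 SD of all compounds, about 5% in these data, not always enough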;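 further: 0% = vehicle buffer wells and 100% = reference agonist at full effect; tested in CHO reporter cells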
# Target sequence (O43603 whole entry, looked up): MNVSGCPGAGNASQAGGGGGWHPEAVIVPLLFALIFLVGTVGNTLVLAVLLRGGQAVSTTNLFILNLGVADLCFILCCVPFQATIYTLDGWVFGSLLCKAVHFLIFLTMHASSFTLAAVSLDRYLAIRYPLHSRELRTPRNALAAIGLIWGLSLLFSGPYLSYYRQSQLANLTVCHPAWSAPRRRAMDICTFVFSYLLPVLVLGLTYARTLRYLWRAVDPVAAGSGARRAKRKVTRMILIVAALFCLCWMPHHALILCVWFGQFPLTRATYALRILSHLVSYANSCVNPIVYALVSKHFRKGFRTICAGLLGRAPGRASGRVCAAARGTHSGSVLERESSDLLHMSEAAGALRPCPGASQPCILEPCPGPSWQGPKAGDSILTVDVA
# PKD1 inh: inhibitors of human PKD1 kinase | Q15139 | PKD1 kinase fluorescence polarization assay | inhibition, %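 (about 10 µM by stock and volumes)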 | 0.056% of 200,000 active | AID 797;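 active means inhibition of 50% or more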;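 further: controls were vehicle for no effect and a reference inhibitor for full effect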
# INS promoter inh cell count: further read-out of INS promoter inh, marked with its call; normalized cell count, %; measured here: cell count, toxicity; reference of the scale not given here;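 cells exposed to compound for 48 h; stained nuclei by imaging scaled within each plate; lower means fewer cells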
# HSV replic up primary fold: second read-out of HSV replic up, no call of its own (marks repeat the call); fold increase; compound at 10 µM; measured here: primary screen fold increase 10 uM; tested in PC3 cells;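 GFP signal in the first replicate; 1 = infected wells without compound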
# The depositor's hits bear a star; i = inactive; ? = inconclusive; nt = not tested or not shown.
SMILES,RGS16-Gao HTS,INS promoter inh,INS promoter inh cell count,HSV replic up,HSV replic up primary fold,GALR2 ag,PKD1 inh
Cc1cc(Cl)ccc1OCCCC(=O)N1CCOCC1,78,-48,97,i,0.93,-0.6,-7
COc1ccc(C2C(Oc3ccccc3)C(=O)N2c2cc(C)ccc2C)cc1OC (configuration not stated),107,-40,46,nt,nt,0.2,3
O=C(NCc1cccs1)C1CCN(S(=O)(=O)N2CCCC2)CC1,103,-38,94,i,1,-1.9,-5
O=C(NC1CCCCC1)c1ccc(S(=O)(=O)c2ccccc2Cl)c([N+](=O)[O-])c1,105,22,85,i,0.79,-1.4,-3
COc1ccc(CCNC(=O)C2CCN(Cc3nc(-c4ccccc4F)oc3C)CC2)cc1OC,104,nt,nt,i,0.76,-0.7,6
O=C(COc1ccccc1)NCCn1ccc2ccccc21,93,-186,34,i,0.99,-0.3,5
CCN(CC)C(=O)CSC1=C(C#N)C(c2cccs2)C=C(C)N1 (configuration not stated),80,nt,nt,i,0.87,-2.0,-21
CC(Nc1nc(-c2ccccc2O)nc2ccccc12)c1ccccc1 (configuration not stated),99,nt,nt,i,1,nt,nt
S=C1NCCc2ccc(Cl)cc2C1c1ccccc1 (configuration not stated),101,-55,139,i,0.73,-2.6,4
O=C(Cc1cnc2ncnn2c1)N1CCc2c([nH]c3ccccc23)C1c1ccccc1F (configuration not stated),105,nt,nt,i,1,nt,-1
O=C(Nc1ccccc1-c1nc2ccccc2s1)c1ccc(Br)o1,116,nt,nt,i,0.82,-1.1,-5
Cc1ccccc1CN(C)CC(=O)Nc1cccc(S(=O)(=O)N(C)c2ccccc2)c1,101,nt,nt,i,0.88,nt,-1
CCn1c(SC(C)C)nnc1-c1c[nH]c2ccccc12,111,nt,nt,i,1.1,-3.2,-5
O=C(Nc1cccnc1)C(Cc1ccccc1)n1cccc1 (configuration not stated),102,nt,nt,i,0.7,-2.9,5
CCN1C(=O)CCC(C(=O)O)C1c1ccc(OC)cc1 (configuration not stated),100,nt,nt,i,1,nt,nt
CC(C)N1C(=O)CC2(CC[N+](C)(CCOC(=O)C(c3ccccc3)c3ccccc3)CC2)C1=O (configuration not stated),44,20,75,i,0.9,-1.9,3
Cc1cc(C)nc(Nc2ncc(O)n2-c2ccc(C)c(C)c2)n1,104,-22,105,i,0.99,-2.0,1
CCS(=O)(=O)N1CCN(C(=O)CCC2CCCC2)CC1,102,-21,85,i,1.1,-1.3,-4
COc1ccc(-n2c3c(cc(C(=O)Nc4ccc5c(c4)C(=O)NC5=O)c2=O)C(=O)CCC3)cc1,nt,-38,153,nt,nt,1.1,0
CCO[C@H]1OC(C(=O)NC2CC2)=C[C@@H](c2ccc(C(F)(F)F)cc2)[C@@H]1CCCO,103,nt,nt,i,0.95,nt,12

# Reformatted with bars between the fields: 6 of the compounds above
SMILES | RGS16-Gao HTS | INS promoter inh | INS promoter inh cell count | HSV replic up | HSV replic up primary fold | GALR2 ag | PKD1 inh
O=C(Nc1ccccc1-c1nc2ccccc2s1)c1ccc(Br)o1 | 116 | nt | nt | i | 0.82 | -1.1 | -5
Cc1ccccc1CN(C)CC(=O)Nc1cccc(S(=O)(=O)N(C)c2ccccc2)c1 | 101 | nt | nt | i | 0.88 | nt | -1
CCn1c(SC(C)C)nnc1-c1c[nH]c2ccccc12 | 111 | nt | nt | i | 1.1 | -3.2 | -5
O=C(Nc1cccnc1)C(Cc1ccccc1)n1cccc1 (configuration not stated) | 102 | nt | nt | i | 0.7 | -2.9 | 5
CCN1C(=O)CCC(C(=O)O)C1c1ccc(OC)cc1 (configuration not stated) | 100 | nt | nt | i | 1 | nt | nt
CC(C)N1C(=O)CC2(CC[N+](C)(CCOC(=O)C(c3ccccc3)c3ccccc3)CC2)C1=O (configuration not stated) | 44 | 20 | 75 | i | 0.9 | -1.9 | 3

# Additional records follow.
SMILES,RGS16-Gao HTS,INS promoter inh,INS promoter inh cell count,HSV replic up,HSV replic up primary fold,GALR2 ag,PKD1 inh
Cc1ccc(NC(=O)COc2ccc(/C=C3/SC(=Nc4ccccc4)N(Cc4cccnc4)C3=O)cc2)cc1,105,-15,111,i,1.1,-0.6,-4
C/C(=N\NS(=O)(=O)c1ccc(C)cc1)c1cc2ccccc2oc1=O,104,nt,nt,i,0.85,nt,-1
CCCSC1=C(C#N)C(c2ccc(O)c(OC)c2)CC(=O)N1 (configuration not stated),102,nt,nt,i,0.85,-3.5,7
CCOC(=O)c1nn(-c2ccccc2)c(=O)cc1SC(C)C,134,-43,114,i,0.94,-1.1,-13
c1ccc2c(C[n+]3csc4ccccc43)cccc2c1,90,18,92,nt,nt,-1.6,-7
Nc1cc(=O)[nH]c(SCC(=O)Nc2ccc(F)c(Cl)c2)n1,99,0,93,i,0.73,-2.4,-9
Cc1ccccc1Nc1nc(N)nc(COC(=O)c2ccccc2)n1,100,-16,111,i,0.73,-0.9,-6
Cc1cccc2cc(COC(=O)c3cccc([N+](=O)[O-])c3)c(=O)[nH]c12,100,nt,nt,i,1,nt,nt
Cn1cccc1/C=C(/C#N)c1ccc(F)cc1,102,-438,86,i,0.98,nt,-4
N#Cc1c(-n2ccnc2)cccc1-n1ccnc1,102,-13,94,i,0.89,-1.6,0
CC(=O)OCCSc1c(-c2ccccc2)c2cc(Cl)ccc2[nH]c1=O,103,-6,61,i,0.85,-0.7,5
CCOc1ccc2c(c1)c(N=NC(=N)N)c(O)n2C,102,nt,nt,i,1,-0.4,1
CC1CCCN(C(=O)C(C)Nc2cc(Cl)ccc2N2CCOCC2)C1 (configuration not stated),100,-67,157,i,1.1,nt,-6
COc1cccc(C(=O)N2CCN(CCCc3ccccc3)CC2)c1OC,101,0,75,nt,nt,-0.3,-1
N#C/C(=C(/O)c1ccc(F)cc1)c1nc2ccccc2s1,104,40,115,i,0.79,nt,1
CC(C)(C)C(=O)c1sc2nc(-c3cccs3)cc(C(F)(F)F)c2c1N,110,-36,173,?,nt,-1.8,3
CC1(C)OC2OC(COC(=O)c3ccc([N+](=O)[O-])cc3)C3OC(C)(C)OC3C2O1 (configuration not stated),82,-7,113,i,1.1,-0.4,-9
O=C(NCCCn1ccnc1)C(=O)NCC1OCCN1S(=O)(=O)c1ccc(Br)cc1 (configuration not stated),99,0,91,nt,nt,nt,-1
O=C(O)c1cc2nc(-c3ccccc3)cc(C(F)(F)F)n2n1,120,0,94,i,0.95,-1.2,0
N#Cc1cc(-c2ccccc2)nnc1Sc1ccc(Cl)cc1,63,nt,nt,i,1,-1.4,-7
Cc1ccc(OCc2ccc(C(=O)Nc3nc4ccccc4n3C)o2)c([N+](=O)[O-])c1,101,-7,105,i,0.96,-2.5,-9
Cc1ccc(/C=N/NC(=S)NC2CCCCC2)o1,102,nt,nt,i,0.99,nt,nt
CCOC(=O)N1C=CC=C[C@@H]2[C@@H](N3C(=O)c4ccccc4C3=O)C(=O)N21,82,-13,139,i,1,-1.7,2
COCCNc1ccc(S(=O)(=O)N2CCCC2)cn1,97,nt,nt,i,0.91,nt,3
COc1ccc(NS(=O)(=O)c2cc(NC(=O)c3cnc(C)cn3)ccc2N2CCCC2)cc1,52,-1,128,i,0.91,-1.0,-13
Cc1cc(Br)ccc1S(=O)(=O)n1ccnc1C,101,nt,nt,i,1,nt,5
COc1ccc(C2C(C(=O)c3ccccc3)=C(C)Nc3nc4ccccc4n32)cc1OC (configuration not stated),nt,-10,119,nt,nt,-0.3,-8
O=C(CSc1ncnc2c1oc1ccccc12)Nc1ccccc1F,100,nt,nt,i,0.84,-1.2,6
Cc1cc(C)nc(SCC(=O)Nc2cccc(S(=O)(=O)N(C)C)c2)n1,95,nt,nt,i,0.94,nt,-4
Cc1cc(C)c(NC(=S)N(CCN2CCCCC2)Cc2ccco2)c(C)c1,99,nt,nt,i,0.9,nt,-4
N#Cc1c(-c2ccc(Cl)cc2)ccnc1N1CCOCC1,104,-13,143,i,0.97,nt,-6
O=C(CCc1nc(-c2ccccc2Cl)no1)NCc1ccco1,95,nt,nt,i,0.93,nt,-1
Cc1ccc(-c2nc(C(=O)NC3CCCCCC3)no2)cc1,nt,nt,nt,i,0.87,-4.5,16
NC(=O)C1CCN(C(=O)Cc2ccc([N+](=O)[O-])cc2)CC1,109,50,50,i,1.1,-0.2,-2
Nn1c(SCc2ccccn2)nncc1=O,102,nt,nt,i,0.98,nt,-2
Cc1ccc(S(=O)(=O)NC2c3cccc4cccc(c34)C2Sc2ncccn2)cc1 (configuration not stated),108,17,109,i,0.96,-0.7,3
O=C(NC1CCCC1)c1cccc(S(=O)(=O)N2CCCCC2)c1,100,-54,125,i,0.87,-1.9,-3
COc1ccc(CNC(=O)C2CCC(CNc3c(N4CCC(C)CC4)c(=O)c3=O)CC2)cc1 (configuration not stated),102,nt,nt,i,0.97,nt,nt
CCN1CCN(C(=S)NCC2CCCO2)CC1 (configuration not stated),97,13,161,i,0.94,nt,3
O=C(Nc1ccc2ccccc2c1)Nc1ccc2snnc2c1,104,28,161,i,0.61,-3.1,4
CN(C)C(=S)c1ccc(N(C)C)cc1,95,nt,nt,i,0.9,nt,-6
CCn1cc(CNC(=O)CCc2nnc(CCC3CCCCC3)o2)cn1,107,nt,nt,i,1,nt,8
CC1(C)N=C(SCC(=O)Nc2ccc(Cl)cc2Cl)C(c2ccccc2)=N1,93,-62,51,i,0.95,-0.2,-1
Cc1c(C(=O)Nc2ccc(Cl)cn2)oc2ccccc12,101,8,112,i,1,-2.5,-4
C=CCNC(=O)c1snnc1-c1ccccc1,109,-193,73,i,1,-1.0,7
c1ccc(-c2cnc(CSc3nnc4ccccn34)o2)cc1,97,-9,92,i,0.79,-0.2,-6
CCOc1cc(C2c3c(n[nH]c3C)C(=O)N2c2ccc(Br)cc2)ccc1O (configuration not stated),95,70,140,i,0.9,-2.0,4
CN1CCc2c(sc3c2C(=O)NC(c2cccs2)N3)C1 (configuration not stated),100,nt,nt,?,nt,3.7,8
Cn1ncc(C#N)c1/N=C/N1CCCCC1,99,5,124,i,0.86,1.2,0
CC(OC(=O)c1ccc2c(=O)n3c(nc2c1)CCCCC3)C(=O)Nc1ccc(Cl)cn1 (configuration not stated),109,-17,111,i,0.95,-0.4,-1
CC(=O)c1ccc(NC(=S)NC(=O)c2c(Cl)c(C)nn2C)cc1,87,nt,nt,i,0.99,-0.8,4
Cn1c(C(=O)NCCCN2CCCCCC2)cc2c(=O)n(C)c3ccccc3c21,102,nt,nt,i,0.69,-1.1,-15
CC(=O)Nc1sc2c(c1C(c1ccc(F)cc1)N1CCOCC1)CCCC2 (configuration not stated),97,-10,123,i,1,-0.7,-10
Cc1ccc2c(c1)nnn2C1CCN(S(=O)(=O)c2ccc(C(=O)N3C(C)CCCC3C)cc2)CC1 (configuration not stated),103,-208,6,nt,nt,-1.6,-2
Cc1nc2sccn2c1P(c1c(C)nc2sccn12)c1c(C)nc2sccn12,114,nt,nt,i,0.8,-0.2,-3
COc1ccc(OCCNC(=O)CCCO)cc1,96,nt,nt,i,0.91,nt,nt
COc1ccc(S(=O)(=O)N2CCN(CC(=O)Nc3ccc(C)c(F)c3)CC2)cc1,117,16,86,i,0.96,-2.4,-10
O=C(COC(=O)c1ccc(S(=O)(=O)N2CCOCC2)cc1)NC1CCCCCCC1,100,nt,nt,i,1.1,nt,-5
Cc1ccc(Cl)cc1NC(=S)NCCCSC1CCCCC1,101,-9,76,i,0.82,nt,3
O=C(NCc1ccccc1)c1noc2c1CCCC2,104,nt,nt,i,0.87,-0.4,-1
# New compounds follow.
SMILES,RGS16-Gao HTS,INS promoter inh,INS promoter inh cell count,HSV replic up,HSV replic up primary fold,GALR2 ag,PKD1 inh
CN(CCO)C(=O)C1CCN(c2ncc(C(F)(F)F)cc2Cl)CC1,102,nt,nt,i,1,nt,-1
COc1ccc(N2C(=O)/C(=C/c3ccc([N+](=O)[O-])cc3)N=C2C)c(OC)c1,101,-10,77,i,0.93,nt,0
C(=N\n1cnc2ccccc21)/c1cccnc1,101,14,53,i,0.9,-2.5,5
O=[N+]([O-])c1ccc(Cl)c(S(=O)(=O)N2CCCCCC2)c1,106,-16,90,i,0.9,-1.1,-6
COc1ccc(CN(C(=O)c2ccc(-c3ccccc3)[nH]2)C(C(=O)NC(C)(C)C)c2ccncc2)cc1 (configuration not stated),96,7,98,i,0.91,nt,0
CCOc1cc(CNc2ccc(O)cc2)cc(Br)c1OCc1ccccc1F,-568,8,117,i,0.99,-2.0,-18
O=C(CCNS(=O)(=O)c1ccc(Cl)cc1)N1CCC2(O)CCCCC2C1 (configuration not stated),93,-36,109,i,1.1,-3.5,-8
Cc1cccc(NC(=S)NC(=O)c2ccc(Br)o2)c1C,101,nt,nt,i,1,nt,-8
CCOC(=O)c1cnc(SCC#N)nc1N,102,nt,nt,i,0.91,nt,nt
